# CBX7 AlphaScr = inhibitors of human CBX7 binding to H3K27me3 peptide; O95931; AID 1224903; AlphaScreen His6-CBX7 / biotin-H3K27me3 peptide binding; active compounds read low; 1.1% of 66,000 active; normalised signal (fraction of DMSO) (concentration not given with the values); in the data active means normalised signal below about 0.5;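 further: 100 nL library stock added to about 20 µL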
# Target sequence (O95931 whole entry, looked up): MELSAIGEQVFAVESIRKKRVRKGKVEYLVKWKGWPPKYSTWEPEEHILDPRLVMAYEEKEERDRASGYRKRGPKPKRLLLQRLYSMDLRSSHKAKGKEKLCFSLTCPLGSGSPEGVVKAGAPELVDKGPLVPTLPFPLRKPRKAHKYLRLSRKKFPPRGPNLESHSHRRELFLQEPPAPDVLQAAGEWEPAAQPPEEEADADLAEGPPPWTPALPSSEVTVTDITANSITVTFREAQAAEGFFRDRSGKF
# CBX7 AlphaScr z-score = also measured in CBX7 AlphaScr; calls as there; z-score; measured here: z-score of CBX7 signal; some inactives read as strong as hits; reference of the scale not given here;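 same signal on another scale; lower means less binding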
# Active calls of the source: *; & = joins results of further samples.
SMILES,CBX7 AlphaScr,CBX7 AlphaScr z-score
Cc1cc(C)n(-c2cccc(F)c2)c(=O)c1C(N)=O,0.96,-0.85
CCN1CCCC1CNS(=O)(=O)c1cc(Br)cc2c1N(C(=O)C1CC1)CC2 (stereo not drawn),0.99,-0.24
CCOC(=O)c1nnn(-c2nonc2N)c1CN1CCC(C)CC1,0.95,-0.58
O=C(Nc1ccccc1)Nc1ccc(-c2nnc3n2CCCCC3)cc1,1.1,0.48
COC(=O)c1cn(-c2ccccc2)nc1-c1ccc(OC)cc1,1,0.86
COC(=O)c1cc2ccsc2n1Cc1nc(-c2cccc(Cl)c2)oc1C,0.97,-0.98
COc1cccc(C(=O)Nc2nnc(CCS(=O)(=O)c3ccc(Cl)cc3)s2)c1,1,1.7
O=C(CN1C(=O)COc2ccc(S(=O)(=O)N3CCCCCC3)cc21)N1CCCC1,1.1,0.15
CCOc1ccc(-n2cnnn2)cc1S(=O)(=O)N1CCOCC1,0.79,-2
CCN(CC)CCNC(=O)c1ccc2nc(N3CCC(C)CC3)sc2c1,1,0.79
C=CCn1c(CCCNC(C)=O)nc2ccccc21,1.1,1
COc1ccc(-c2csc(NC(=O)c3cccc(Oc4ccccc4)c3)n2)cc1,0.92,-3.1
Cc1cc(-n2nc(C)c3c2CCC3)nc(C)n1,0.89,-1.1
COc1ccc(-c2cc(C(=O)Nc3c(C)nn(Cc4ccc(Cl)cc4)c3C)no2)cc1,1,0.57
CN(C(=O)CCc1nc(-c2ccccc2F)no1)c1ccccc1Cl,0.92,-1.2
Cc1ccccc1NS(=O)(=O)c1ccc2[nH]cc(C(=O)NCc3ccccc3)c(=O)c2c1,0.92,-2.1
Cc1ccc(NC(=O)C2CCN(S(=O)(=O)c3c(C)noc3/C=C/c3cccs3)CC2)cc1C,0.95,-2.1
O=C(c1ccc2c(c1)OCO2)c1cn(Cc2ccc(Cl)cc2)c2ccccc2c1=O,0.68,-1.1
COc1ccc(-c2noc(-c3cccc4ccccc34)n2)cc1,1.4,3.7
Fc1ccccc1Nc1nc2nonc2nc1N1CCN(Cc2ccccc2)CC1,0.9,-1.2
COc1cccc(C2=NOC(C(=O)Nc3cccnc3)C2)c1 (stereo not drawn),0.92,-1
O=c1oc2ccccc2cc1-c1cn2cc(Cl)ccc2n1,0.96,-0.57
COc1ccc(-c2nc(N)ncc2-c2csc(-c3ccccc3)n2)c(O)c1,0.84,-0.7
CCCN(C(=O)Cn1nc(Cc2cccnc2)c2ccccc2c1=O)c1cccc(Cl)c1,0.93,-2.4
Cn1c(C(=O)N2CCN(c3ccccc3)CC2)cc2sc(Cl)cc21,0.98,-0.81
O=C(COc1ccc2ccccc2c1)Nc1ccc(O)c(-c2nc3ccccc3o2)c1,1,0.33
Cc1ccc2c(c1)C(c1ccccc1C(F)(F)F)CC(=O)N2 (stereo not drawn),0.87,-0.15
COc1ccc(C(=O)Nc2ccccc2-c2nc3ccccc3[nH]2)cc1,1,0.36
CCC1=Nc2cc(C(=O)NCc3ccc(F)cc3)ccc2Sc2ccc(Cl)cc21,1,0.51
Cc1cccc(CCNC(=O)CCc2c(C)nc3cc(-c4ccc(Cl)cc4)nn3c2C)c1,1,0.87
COc1ccc(OC)c(NC(=O)CS(=O)(=O)Cc2nc(-c3ccccc3C)oc2C)c1,0.9,-1.9
CC1CCCC(NC(=O)c2ccc3c(c2)N(Cc2ccccc2)C(=O)CS3=O)C1C (stereo not drawn),1.1,0.95
CCOc1ccc(-c2cc(C(=O)NC(C)c3ccccc3)c3ccccc3n2)cc1 (stereo not drawn),0.99,-0.19
Cc1cc(NC(=O)c2nccnc2C(=O)O)ccc1F,0.61,-5
CCOc1ccccc1C(=O)NCCc1c(C)[nH]c2ccccc12,0.9,-1.5
CC1CC(C)CN(S(=O)(=O)c2ccc3c(c2)N(CC(=O)N2CCCCCC2)C(=O)CO3)C1 (stereo not drawn),0.93,-2.1
O=C(C1CC1)N1CCc2cc(S(=O)(=O)Nc3ccc4c(c3)OCO4)ccc21,0.88,-1.3
Fc1ccc(-c2nc(-c3ccccc3)c(-c3cccs3)[nH]2)cc1,0.7,-1.9
COc1ccc(CCNC2CC(=O)N(c3ccc(C)c(Cl)c3)C2=O)cc1 (stereo not drawn),1.1&1,2.7&0.23
O=C(Nc1ccc(-c2nc3cc(NC(=O)c4cccs4)ccc3o2)cc1)c1cccs1,1,0.08

# Profiles as entered above. Order of screens: CBX7 AlphaScr | CBX7 AlphaScr z-score
# O=C(Nc1ccc(-c2nc3cc(NC(=O)c4cccs4)ccc3o2)cc1)c1cccs1 across the screens: 1 | 0.08
# Cc1cc(NC(=O)c2nccnc2C(=O)O)ccc1F across the screens: 0.61 | -5
# O=C(COc1ccc2ccccc2c1)Nc1ccc(O)c(-c2nc3ccccc3o2)c1 across the screens: 1 | 0.33
# COc1ccc(C(=O)Nc2ccccc2-c2nc3ccccc3[nH]2)cc1 across the screens: 1 | 0.36
# CCCN(C(=O)Cn1nc(Cc2cccnc2)c2ccccc2c1=O)c1cccc(Cl)c1 across the screens: 0.93 | -2.4

# In the list so far, these have a thiophene ring, fused or not:
SMILES,CBX7 AlphaScr,CBX7 AlphaScr z-score
COC(=O)c1cc2ccsc2n1Cc1nc(-c2cccc(Cl)c2)oc1C,0.97,-0.98
Cc1ccc(NC(=O)C2CCN(S(=O)(=O)c3c(C)noc3/C=C/c3cccs3)CC2)cc1C,0.95,-2.1
Cn1c(C(=O)N2CCN(c3ccccc3)CC2)cc2sc(Cl)cc21,0.98,-0.81
Fc1ccc(-c2nc(-c3ccccc3)c(-c3cccs3)[nH]2)cc1,0.7,-1.9
O=C(Nc1ccc(-c2nc3cc(NC(=O)c4cccs4)ccc3o2)cc1)c1cccs1,1,0.08

# Going on with the list:
SMILES,CBX7 AlphaScr,CBX7 AlphaScr z-score
CC1(C)CC(=O)c2sc(NC(=O)c3ccc(C(=O)c4ccccc4)cc3)nc2C1,0.94,-0.064
Cc1ccc2nc(-c3ccc(O)c(O)c3)cn2c1,0.53,-1.9
CCOc1ccc(NC(=O)CN2C(=O)CC(C)(C)Sc3ccccc32)cc1,0.99,-0.46
CCc1cc(-c2nc(-c3ccc(Cl)c(Cl)c3)cs2)ccn1,1.2,1.5
CCCOc1ccc(N2C(=O)CC(N3CCN(c4cccc(Cl)c4)CC3)C2=O)cc1 (stereo not drawn),0.85&0.93,-2.3&-0.97
Cc1cc(=O)n2nc(N3CCCC(C(=O)NC(C)c4ccccc4)C3)sc2n1 (stereo not drawn),0.95,-0.46
COc1cccc(-n2c(C)nc3c(cnn3-c3ccc(Cl)cc3)c2=O)c1,0.86,-2.1
COC(=O)c1cc2ccsc2n1Cc1cccc(C)c1,1.2,5.1
O=C(NCc1ccccc1)C1C2C=CC3(CN(Cc4ccccc4)C(=O)C13)O2 (stereo not drawn),1.2,2.8
COc1ccc2c(c1)CCc1c(C(=O)Nc3ccc(C#N)cc3)noc1-2,0.81,-1.9
COc1cccc(C2C(=O)N(C3CCCCC3)CC(=O)N2CCc2ccc(OC)c(OC)c2)c1 (stereo not drawn),1,0.83
CCOC(=O)C1CCN(C(=O)c2ccc3c(c2)N=C(CC)c2cc(C)ccc2S3)CC1,0.83,-7.9
COc1ccc2nc(C)cc(Nc3ccc(C(=O)O)cc3)c2c1,0.99,-0.2
CCCNC(=O)Cn1cnc2sc(C(=O)NCCCN(CC)CC)c(C)c2c1=O,1,0.41
COc1ccc(N2Cc3cccc(C(=O)NCCC4=CCCCC4)c3C2=O)cc1,1.1,4.5
CCOC(=O)C1CCN(C(C(=O)Nc2ccc3c(c2)OCCO3)c2ccccc2)CC1 (stereo not drawn),0.9,-2.2
Cc1ccc2nc(-c3ccc(O)cc3)c(Nc3ccc4c(c3)OCO4)n2c1,0.8,-3.3
CCOC(=O)C1CCN(C(C(=O)NC2CCCCC2)c2ccc(Cl)cc2)CC1 (stereo not drawn),1,0.92
CCc1nc2ccccc2c(NC(=O)CN2CCN(C)CC2)c1C,0.053*,-1.6*
CCc1cc(-c2n[nH]c(C)c2Oc2ccccc2)c(O)cc1O,0.41*,-9.2*
CCOC(=O)c1c(NC(=O)CN2CCCCCC2)sc2c1CCCC2,1,0.29
CCOC(=O)c1cc(-c2ccc(OC)cc2)n(CCC(=O)NC2CCCCC2C)c1C (stereo not drawn),1.1,2.4
CCN1C(=O)c2ccccc2S(=O)c2ccc(C(=O)N3CCN(c4ccc(F)cc4)CC3)cc21 (stereo not drawn),0.98,-0.54
O=C(Nc1c2c(nn1-c1ccc(F)cc1)CS(=O)(=O)C2)C1CC1,1.2,2.2
N#Cc1nc(COc2ccc(Br)cc2)oc1N1CCCC1,0.47*,-27*
COc1ccccc1C(=O)NCCc1c(C)[nH]c2ccc(OC(F)(F)F)cc12,0.64,-5.2
CCc1ccc2c(c1)c(=O)c(S(=O)(=O)c1ccccc1)cn2CC(=O)Nc1ccccc1,0.98,-0.8
O=C(CN1C(=O)COc2ccccc21)NCCCN1CCCCC1,1,-0.16
Cc1cccc2c1-c1sc(C(=O)N3CCc4ccccc43)cc1CO2,1.1,1.6
COc1ccc(NC(=O)c2c(NCc3ccncc3)sc3c2CCCC3)c(OC)c1,0.76,-4.7
COc1ccc(Nc2nnc(C(C)(C)C)c(=O)[nH]2)c(OC)c1,0.86,-2.5
Cc1cc(C)c2oc(-c3cc(N)ccc3Cl)nc2c1,0.98,-0.36
Cc1[nH]c2ccccc2c1C1(O)C(=O)N(CCCc2ccccc2)c2ccccc21 (stereo not drawn),0.7,-8.2
CCN(CCCNC(=O)c1cc(Nc2ccc(OC)c(OC)c2)nc2ccccc12)c1cccc(C)c1,0.64,-4.3
COc1ccc(-c2cc(C(=O)NCCc3ccccc3)no2)cc1OC,0.95,-0.56
NC(=O)c1ccccc1NC(=O)C(Cc1ccccc1)N1C(=O)c2ccccc2C1=O (stereo not drawn),0.98,-0.39
Cc1ccc2c(c1)-c1c(cnn1CC(=O)Nc1cccc(C)n1)CO2,1.1,2
CCOc1ccc(C(=O)Nc2c(C(N)=O)oc3ccccc23)cc1,1,0.098
CCOc1ccc(-n2c(Cc3cc(=O)[nH]c(=O)[nH]3)nnc2SCC(=O)Nc2ccc(C)cc2)cc1,0.87,-2
Cc1ccc(-n2cc(-c3ccccc3)nc2SCC(=O)c2ccccc2)cc1,0.72,-7.4
Cc1ccc(Cn2ccc(NC(=O)c3cc(-c4cccs4)on3)n2)cc1,1.1,1.7
Cc1cccc(NC(=O)CSc2nccn2-c2cccc(Cl)c2)c1,0.87,-2.3
Cc1c(C(=O)Nc2ccc(C(F)(F)F)cc2)sc2ncn(CC(=O)N3CCCC(C)C3)c(=O)c12 (stereo not drawn),1.1,1.7
COCCCNC(=O)C1CC(=O)N(Cc2ccc(OC)cc2)C1 (stereo not drawn),0.98,-0.64
CCOc1ccccc1NC(=O)CSc1nccn1-c1ccc(OC)cc1,0.73,-4.1
COc1cccc(-c2nc(CS(=O)(=O)CC(=O)N3CCCCC3)c(C)o2)c1,0.98,-0.19
O=C(O)CCC(=O)N1CCN(c2nc(-c3ccccc3)c3cc(Br)ccc3n2)CC1,1.1,1.1
CC(C)(C)c1ccc(C(=O)Nc2ccc3oc(-c4ccncc4)nc3c2)cc1,0.86,-1.5
Cc1ccc(-c2noc(COc3ccc(Cl)cc3C)n2)cc1,1.2,2.7
CCN(CC)C(=O)Cn1cnc2sc(C(=O)Nc3cccc(C)c3)c(C)c2c1=O,0.98,-0.56
COc1cc(OC)cc(C(=O)Nc2ccc3nc4n(c(=O)c3c2)CCCCC4)c1,1,0.55
CCOC(=O)C1CCN(c2c(NCc3ccc(C(=O)N(C)Cc4ccccc4)cc3)c(=O)c2=O)CC1,0.91,-2.7
O=C(CSc1nnc(CNC(=O)c2ccccc2F)o1)Nc1ccc(F)cc1,0.97,-1
CCN1CCN(C(c2cccs2)C(C)NC(=O)Cc2ccc(F)cc2)CC1 (stereo not drawn),1.4,3.7
CCc1ccccc1NC(=O)Cc1c(C(=O)O)[nH]c2ccccc12,0.99,-0.27
c1ccc(-n2c(SCc3nc4ccccc4[nH]3)nc3ccccc32)cc1,1,1.3
Cc1ccc(NC(=O)C(Cc2ccccc2)NS(=O)(=O)c2cccs2)cc1 (stereo not drawn),1.1,3
CCc1nc(N2CCCCC2)c(C#N)c2c1COC(C)(C)C2,1&1.1,0.61&1.5
COc1cc2c(cc1OC)C(C(=O)Nc1cccc(C#N)c1)C1c3ccccc3CCN1C2=O (stereo not drawn),1,0.028
COc1ccccc1OCC(=O)Nc1c(C(=O)c2ccccc2)oc2ccccc12,1,0.14
# Further compounds
SMILES,CBX7 AlphaScr,CBX7 AlphaScr z-score
COCCCNC(=O)Cc1c(C(=O)O)[nH]c2ccc(Cl)cc12,0.98,-0.16
CC(=O)N1CCc2cc(S(=O)(=O)NCCC(=O)NC3CCN(Cc4ccccc4)CC3)ccc21,1.1,1.8
CC1CCCN(S(=O)(=O)c2ccc(C(=O)Nc3cccc(-c4nc5ccccc5[nH]4)c3)cc2)C1 (stereo not drawn),0.86,-3.2
Cc1ccccc1Nc1nc(-c2c(C)nc3ccccn23)cs1,0.88&0.53,-2.2&-0.53
CCCCOc1ccc(N2C(=O)CC(N3CCCCC3)C2=O)cc1 (stereo not drawn),1.1,1.8
Cc1ccccc1OCc1nc(C#N)c(NCc2ccc(F)cc2)o1,0.84,-7
Cc1cc2c(cc1C)NC(CC(=O)Nc1ccccc1Cl)C(=O)N2 (stereo not drawn),0.9,-0.23
CCOc1ccc(-c2cc(CCCC(=O)NCCc3ccccc3)no2)cc1,1.1,0.47
NS(=O)(=O)c1ccc(Nc2nc(-c3ccncc3)cs2)cc1,0.92,-1.6
COc1ccccc1OCC(=O)N(Cc1cccs1)C1CCS(=O)(=O)C1 (stereo not drawn),1,0.32
Cc1cccc2nc(-c3cccnc3)c(NC3CCCC3)n12,0.9,-2.7
CCCCN(Cc1ccccc1)S(=O)(=O)c1ccc2c(c1)CCN2C(C)=O,0.76,-0.97

# Source: PubChem (several laboratories)

# A portion of the library; rates above refer to the full screens.
